Screening results: PubChem, several laboratories
RGS16-Gao: RGS16-Galphao interaction regulator (human) | binding response (% of control), % at 10 µM | O15492+P09471 | actives 0.38% (n = 220,000) | bead-based flow cytometry RGS16-Galphao binding, fluorescence; actives lie on both sides | AID 1441;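 active means below 25% or above 175%, edge rows of some plates excepted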;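 further: Galphao activated by GDP with aluminum fluoride before binding; 100% = wells without compound and 0% = beads without RGS; some results beyond the cut were filed as inactive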
Target sequence (O15492 whole entry, looked up): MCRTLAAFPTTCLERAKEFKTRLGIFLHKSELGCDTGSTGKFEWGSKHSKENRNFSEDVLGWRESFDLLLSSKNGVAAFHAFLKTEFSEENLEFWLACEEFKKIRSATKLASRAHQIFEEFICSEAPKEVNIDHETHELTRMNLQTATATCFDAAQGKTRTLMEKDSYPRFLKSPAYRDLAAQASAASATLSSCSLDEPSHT
Target sequence (P09471 whole entry, looked up): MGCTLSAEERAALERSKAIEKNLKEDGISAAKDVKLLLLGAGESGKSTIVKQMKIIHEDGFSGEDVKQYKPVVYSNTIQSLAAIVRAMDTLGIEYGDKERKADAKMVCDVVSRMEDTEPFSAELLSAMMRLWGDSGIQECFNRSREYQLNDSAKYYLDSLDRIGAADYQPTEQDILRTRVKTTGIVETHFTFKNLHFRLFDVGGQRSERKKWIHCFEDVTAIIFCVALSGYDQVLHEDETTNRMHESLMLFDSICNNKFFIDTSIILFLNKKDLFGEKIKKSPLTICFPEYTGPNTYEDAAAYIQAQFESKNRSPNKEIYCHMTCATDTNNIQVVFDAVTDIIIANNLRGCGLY
PKD1 kinase inh: inhibitors of human PKD1 kinase | PKD1 kinase fluorescence polarization assay | actives 0.056% (n = 200,000) | inhibition, %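 (about 10 µM by stock and volumes)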 | Q15139;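 active means inhibition of 50% or more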;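 further: controls were vehicle for no effect and a reference inhibitor for full effect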
HSV augment: increases HSV replication in cells; HSV replication augmentation in cells, fold increase; maximum fold increase; actives 0.005% (n = 220,000); AID 1956;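 active means peak rise of 1.5-fold or more in the series; inconclusive means self-fluorescent or not available for retest; tested in PC3 cells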;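 further: first round at 10 µM; read as green reporter fluorescence; hits show the peak of a series up to 25 µM; 1 = signal of infected wells without compound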
INS promoter inh: TRM-6 insulin promoter activity inhibition | TRM-6 cells (human fetal islet line), insulin promoter-eGFP reporter, imaging; reporter expression induced with tamoxifen | inhibition, % at 2 µM | actives 0.9% (n = 130,000) | AID 1273;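 active means inhibition above the mean plus 3 SD, with well images judged a real hit on visual review, cut at about 60% in these data, passing the limit was not always enough; inconclusive means inhibition over the cutoff but images rejected on review; inactive means inhibition not above the cutoff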
GALR2 agonist: activates the human galanin receptor 2 | O43603 | GALR2-expressing cells, agonist activation read-out | activation, %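 (tested at 5 µM)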 | actives 0.48% (n = 140,000) | AID 803;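 active means above mean plus 3 SD of all compounds, about 5% in these data, not always enough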;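 further: 0% = vehicle buffer wells and 100% = reference agonist at full effect; tested in CHO reporter cells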
Target sequence (O43603 whole entry, looked up): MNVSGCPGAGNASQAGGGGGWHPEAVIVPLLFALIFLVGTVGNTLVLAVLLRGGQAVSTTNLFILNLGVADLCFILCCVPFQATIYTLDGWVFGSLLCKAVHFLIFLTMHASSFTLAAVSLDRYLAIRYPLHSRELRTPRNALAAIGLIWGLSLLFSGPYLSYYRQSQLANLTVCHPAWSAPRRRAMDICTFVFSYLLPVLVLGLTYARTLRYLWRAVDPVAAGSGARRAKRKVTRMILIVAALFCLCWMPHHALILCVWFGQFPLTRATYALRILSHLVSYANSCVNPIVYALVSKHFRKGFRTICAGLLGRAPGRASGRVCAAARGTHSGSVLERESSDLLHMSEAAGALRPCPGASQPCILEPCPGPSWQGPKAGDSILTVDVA
INS promoter inh cell count: further read-out of INS promoter inh, marked with its call; normalized cell count, %; measured here: cell count, toxicity; reference of the scale not given here;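 cells exposed to compound for 48 h; stained nuclei by imaging scaled within each plate; lower means fewer cells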
HSV augment primary fold: recorded beside HSV augment, whose call it bears; fold increase; compound at 10 µM; measured here: primary screen fold increase 10 uM; tested in PC3 cells;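 GFP signal in the first replicate; 1 = infected wells without compound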
Active calls of the source: *; i = inactive; ? = inconclusive; . = not tested or not shown.

The first 6 records, ahead of the listing:
nr | Molecule | RGS16-Gao | PKD1 kinase inh | HSV augment | HSV augment primary fold | INS promoter inh | INS promoter inh cell count | GALR2 agonist
1 | O=c1[nH]c(Cc2ccccc2Cl)nc2ccccc12 | 95 | 0 | i | 0.87 | 40 | 66 | .
2 | COc1ccccc1OCC(=O)Nc1ccc2c(c1)C(=O)N(CC1CCCO1)C2=O (configuration not stated) | 97 | -7 | i | 0.97 | . | . | .
3 | c1ccc(C(c2ccccn2)c2ccccn2)cc1 | 100 | 4 | i | 1.1 | -15 | 64 | -2.3
4 | O=C(CSc1nnc(-c2cccs2)o1)Nc1cccc(S(=O)(=O)N2CCCCC2)c1 | 103 | -6 | i | 0.96 | -62 | 71 | -0.4
5 | COc1cccc(OC)c1C(=O)Nc1ccc2c(c1)OCCO2 | 101 | -13 | i | 0.8 | . | . | -1.2
6 | CC1(c2ccccc2)NC(=O)N(N)C1=O (configuration not stated) | 102 | -3 | i | 1 | -79 | 73 | .

Results, repeating the preview:
nr | Molecule | RGS16-Gao | PKD1 kinase inh | HSV augment | HSV augment primary fold | INS promoter inh | INS promoter inh cell count | GALR2 agonist
1 | O=c1[nH]c(Cc2ccccc2Cl)nc2ccccc12 | 95 | 0 | i | 0.87 | 40 | 66 | .
2 | COc1ccccc1OCC(=O)Nc1ccc2c(c1)C(=O)N(CC1CCCO1)C2=O (configuration not stated) | 97 | -7 | i | 0.97 | . | . | .
3 | c1ccc(C(c2ccccn2)c2ccccn2)cc1 | 100 | 4 | i | 1.1 | -15 | 64 | -2.3
4 | O=C(CSc1nnc(-c2cccs2)o1)Nc1cccc(S(=O)(=O)N2CCCCC2)c1 | 103 | -6 | i | 0.96 | -62 | 71 | -0.4
5 | COc1cccc(OC)c1C(=O)Nc1ccc2c(c1)OCCO2 | 101 | -13 | i | 0.8 | . | . | -1.2
6 | CC1(c2ccccc2)NC(=O)N(N)C1=O (configuration not stated) | 102 | -3 | i | 1 | -79 | 73 | .
7 | Cn1c(-c2sc3ccccc3c2Cl)n[nH]c1=S | 98 | -4 | i | 0.84 | 33 | 80 | 0.0
8 | CCN1CCN(C(=S)Nc2ccc([N+](=O)[O-])cc2)CC1 | 99 | 5 | i | 0.9 | 26 | 89 | -1.1
9 | Cn1nnc2cc(C(=O)N3CCC(c4ccccc4)C3)ccc21 (configuration not stated) | 101 | 3 | i | 0.86 | -348 | 48 | -0.5
10 | Cc1ccc(S(=O)(=O)N2CCCC2)cc1C(=O)O | 106 | -4 | i | 0.98 | 24 | 89 | -1.1
11 | COc1ccc(OCC(=O)NC(=S)Nc2ccccc2F)cc1 | 100 | -2 | i | 0.92 | 38 | 141 | 0.1
12 | Nc1nnnn1/N=C/c1ccccn1 | 105 | -2 | i | 0.91 | 0 | 100 | -1.6
13 | CCC1(C)SC(N)=NN1C(C)=O (configuration not stated) | 102 | 2 | i | 0.96 | . | . | .
14 | COc1ccc(NC(=O)c2ccc(-c3nn(C)c(=O)c4ccccc34)cc2)cc1C(N)=O | 105 | . | i | 0.93 | . | . | .
15 | O=C(CN(C(=O)c1ccc2c(c1)OCCO2)c1ccccc1)NCC1CCCO1 (configuration not stated) | 102 | 2 | i | 0.95 | -40 | 102 | -0.8
16 | CCn1cc(/C=N\NC(=O)c2ccccc2Cl)cn1 | 96 | 1 | i | 1 | . | . | -0.5
17 | O=C(CN1CCN(c2ccccn2)CC1)Nc1ccc(OCc2ccccc2)cc1 | 110 | 7 | . | . | 23 | 67 | -1.2
18 | CC(=O)c1c(N2CCN(C(=O)C3CCCO3)CC2)nc(=S)n(-c2ccccc2)c1C (configuration not stated) | 97 | 0 | i | 0.87 | 55 | 113 | -1.5
19 | Cc1cccc(Nc2nc3c(S(=O)(=O)c4ccccc4)nnn3c3ccccc23)c1 | 105 | -4 | i | 0.68 | -76 | 81 | 0.9
20 | COCCn1c(C)cc(C(=O)CSc2nc(C)c(C)c(C)n2)c1C | 103 | -4 | i | 1.1 | -108 | 135 | .
21 | CCc1ccc(/C=N/NC(=O)c2cc(-c3ccncc3)nc3ccccc23)s1 | 99 | -5 | i | 0.63 | -49 | 17 | 0.2
22 | COc1ccc(NCC(=O)N/N=C2\CCc3ccccc32)cc1 | 100 | 1 | i | 0.9 | 0 | 76 | .
23 | CCCC(=O)OCC(=O)c1[nH]c(C)c(C(C)=O)c1C | 101 | -5 | i | 0.93 | . | . | .
24 | O=C(NCCc1c[nH]c2ccccc12)c1cnccn1 | 109 | -1 | i | 1 | 18 | 82 | .
25 | Cc1nc(CCNC(=O)c2ccccc2)cs1 | 99 | -1 | i | 0.96 | -9 | 222 | -1.6
26 | Cc1c(Cl)c([N+](=O)[O-])nn1CC(=O)NCc1ccco1 | 101 | 9 | i | 0.99 | . | . | -2.6
27 | COc1ccc(-c2ccnc(SCC(=O)N3CCOCC3)n2)cc1 | 101 | -10 | i | 0.78 | -44 | 63 | -0.4
28 | COC1Cc2ccccc2N(C(=O)N2CCN(CCO)CC2)c2ccccc21 (configuration not stated) | 107 | -5 | . | . | 18 | 201 | -0.9
29 | O=C(CN1C(=O)C2C3C=CC(C3)C2C1=O)Nc1nc(SCc2ccc(Cl)cc2)n[nH]1 (configuration not stated) | 97 | -4 | i | 0.86 | -40 | 60 | -1.4
30 | COC(=O)CSc1nc2nc(C)c(Br)cc2[nH]1 | 101 | -6 | i | 1.1 | 17 | 69 | -0.3
31 | CC(=O)N1C(=O)CC(C)N(C(C)=O)c2ccc([N+](=O)[O-])cc21 (configuration not stated) | 102 | -3 | i | 0.94 | . | . | -0.4
32 | CC1(C)N=C(N)N=C(N)N1c1cccc(CN)c1 | 108 | . | i | 1 | . | . | .
33 | CCCNS(=O)(=O)c1ccc(CCC(=O)NCc2ccco2)cc1 | 103 | 1 | i | 0.92 | -77 | 146 | -0.2
34 | O=C(Nc1ccccc1C(=O)N1CCOCC1)c1cccc(S(=O)(=O)N2CCCC2)c1 | 72 | -6 | i | 1 | -38 | 175 | -2.0
35 | C=CCn1c(N)c(C(=O)NCCC2=CCCCC2)sc1=S | 85 | -3 | i | 0.84 | -80 | 76 | -1.6
36 | CC(C)CN1C(=O)c2ccc(NC(=O)c3cccs3)cc2C1=O | 100 | -2 | i | 0.74 | -30 | 96 | -1.1
37 | COCCNC(=O)c1cc(-c2cccc(OC)c2)on1 | 97 | -9 | i | 0.77 | 6 | 88 | -1.7
38 | CCn1c(SCC(=O)Nc2nccs2)nnc1-c1cc2cccc(OC)c2o1 | 101 | -10 | i | 0.93 | 0 | 179 | -2.2
39 | COCCCNC(=O)c1cc2cc(Br)ccc2oc1=O | 98 | 2 | i | 0.83 | . | . | .
40 | Cn1cc(C(=O)N2CCN(c3ccccn3)CC2)c(=O)c2cc(S(=O)(=O)N3CCOCC3)ccc21 | 101 | -7 | i | 0.99 | . | . | -0.9
41 | CN(C)c1ccc(/C=C2\NC(=S)N(Cc3ccccc3)C2=O)cc1 | 99 | 5 | ? | . | -170 | 95 | -3.1
42 | CC1=CC(C)(C)N(C(=O)c2ccc(F)cc2)c2cc3c(cc21)OCO3 | 101 | 11 | . | . | . | . | 3.2
43 | O=C(Nc1nnc(COc2ccc(F)cc2)s1)Nc1ccccc1F | 105 | . | i | 0.93 | . | . | .
44 | CN(C)CCN(C(=O)c1ccc(N2C(=O)CCC2=O)cc1)c1nc2cc3c(cc2s1)OCO3 | 99 | -11 | i | 1 | 11 | 126 | .
45 | Cc1ccc(N2CN(Cc3cccnc3)CNC2=S)cc1 | 102 | -15 | i | 0.96 | -8 | 126 | -0.7
46 | Cc1ccc(C(=O)N/C(=C/c2cccs2)C(=O)NCCc2c[nH]c3ccccc23)cc1 | 104 | 5 | i | 0.97 | -147 | 133 | -0.5
47 | CN(C(=O)c1cc2n(n1)C(C(F)(F)F)CC(c1ccco1)N2)c1ccccc1 (configuration not stated) | 77 | 1 | i | 1.1 | . | . | -0.3
48 | CC1(C)CC(=O)C=C(Nc2ccc(F)cc2F)C1 | 110 | -4 | i | 0.91 | 36 | 73 | -0.9
49 | CC1CCN(C(=S)NC(=O)c2cccs2)CC1 | 101 | -2 | i | 0.9 | . | . | .
50 | COc1ccccc1-n1c(SCC(N)=O)nc2c(c1=O)SCC2 | 101 | -6 | i | 1.1 | . | . | -3.1

Entries of single compounds from above. Order of screens: RGS16-Gao	PKD1 kinase inh	HSV augment	HSV augment primary fold	INS promoter inh	INS promoter inh cell count	GALR2 agonist
O=C(CN1C(=O)C2C3C=CC(C3)C2C1=O)Nc1nc(SCc2ccc(Cl)cc2)n[nH]1 (configuration not stated) in the list: 97	-4	i	0.86	-40	60	-1.4
COc1ccc(NCC(=O)N/N=C2\CCc3ccccc32)cc1 in the list: 100	1	i	0.9	0	76	.

Additional results follow.
cpd	molecule	RGS16-Gao	PKD1 kinase inh	HSV augment	HSV augment primary fold	INS promoter inh	INS promoter inh cell count	GALR2 agonist
51	Nc1nc2c(Cl)ccc(Cl)c2s1	105	4	i	0.97	.	.	.
52	CCc1ccc(NC(=S)NC2CCN(Cc3ccccc3)CC2)cc1	106	-9	i	0.73	-118	73	0.5
53	Cc1cc(C(F)(F)F)nn1CC(=O)NCc1cccs1	106	-1	i	0.94	7	100	.
54	CC(=O)c1ccc(CCCC(=O)O)cc1	102	-10	i	0.83	.	.	-1.4
55	O=C(COC(=O)c1ccc(NS(=O)(=O)c2ccc3c(c2)OCCO3)cc1)NC1CCS(=O)(=O)C1 (configuration not stated)	100	1	i	1.1	-21	127	.
56	CC1CSc2nc3sc4c(c3c(=O)n21)CCCC4 (configuration not stated)	102	-2	i	0.85	-5	214	-2.1
57	CCCCN(C)CCNS(=O)(=O)c1ccc2c(c1)n(C)c(=O)c(=O)n2C	100	-10	i	1	.	.	-1.6
58	O=C(NCC1CCCO1)c1ccc2c(c1)N(Cc1ccccc1)C(=O)CS2=O (configuration not stated)	103	-16	i	0.99	.	.	-1.3
59	CC(C)C(=O)c1cc2c(cc1NC(=O)c1cccs1)OCCO2	115	0	i	1	71*	86*	-1.0
60	COc1nc(NCC(C)C)nc(Oc2ccc(OCc3ccccc3)nn2)n1	102	-8	i	1	27	80	1.7
61	CC1=CC(c2ccc(Cl)cc2)n2nc(N3C(=O)CCC3=O)nc2N1 (configuration not stated)	.	-7	i	1	28	110	-1.4
62	Cc1cc(C)n(-c2ccc(C(=O)C(C#N)c3nc4ccccc4n3C)cc2)n1 (configuration not stated)	95	0	i	0.91	.	.	-0.9
63	CCOc1ccc(NC(=S)NCCCc2ccccc2)cc1	100	-5	i	1	.	.	.
64	COc1ccc(S(=O)(=O)N2CCCC2)c(C)c1C	105	-12	i	0.79	.	.	0.3
65	O=C(O)CCc1ccc(-c2ccc(Cl)cc2)n1CC(=O)O	131	-9	i	0.96	11	226	-1.3
66	COc1cc(C(=O)Nc2ccc3c(c2)OCCO3)ccc1OC(F)F	105	9	i	1	3	80	0.1
67	CSc1nc2ccsc2c(=O)n1-c1ccccn1	101	-3	i	0.77	.	.	.
68	COc1ccc(/C(O)=C/c2nc3ccccc3n(-c3ccccc3)c2=O)cc1	107	-8	i	0.96	-17	99	-3.1
69	O=C(NC1CC1)c1ccc(CSCc2cccc(F)c2)o1	101	-1	i	0.96	.	.	-1.7
70	CCC(CC)C(=O)Nc1cccc(/C(C)=N\NC(=O)c2ccc(C)s2)c1	102	-1	i	1	33	64	-1.5
71	COCCN1CCn2c(nc3cc(NC(=O)c4cccs4)ccc32)C1	105	-11	i	0.86	-46	118	-2.0
72	O=[N+]([O-])c1cccc(-c2noc(-c3ccco3)n2)c1	92	.	i	1	.	.	.
73	C=CCn1c(N)c(C(=O)NCc2ccco2)sc1=S	103	-8	i	0.83	-3	124	-2.2
74	CCOC(=O)c1c(NC(=O)c2cc3n(n2)C(C(F)(F)F)CC(c2ccccc2)N3)sc(C)c1C (configuration not stated)	102	0	i	1	.	.	-1.0
